Source: PubChem (several laboratories)
ugtP null kill: kills S. aureus RN4220 lacking UgtP. AID 1259309. growth inhibition, % (test concentration not listed). actives 0.54% (n = 330,000). S. aureus RN4220 ugtP deletion, OD600 growth, 16 h; some inactives read as strong as hits;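 active means z-score under -3 and OD600 up to 0.15 on both plates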;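 further: plate controls were untreated wells for no effect and antibiotic for full effect; wells of about 80 µL received 100 nL stock; the first replicate is given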
RN4220 kill: kills Staphylococcus aureus RN4220; S. aureus RN4220 growth, OD600, 16 h; inhibition, % (test concentration not listed); actives 0.33% (n = 330,000); AID 1259311;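 active means z-score of -3 or lower and OD600 up to 0.18 on both plates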;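 further: plate controls were untreated cells for no effect and reference antibiotic for full effect; stock transfer was 100 nL into about 80 µL; one replicate is shown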
Bead autofluor: counter-screen for toxin protease inhibitors: compound fluorescence | fluorescence intensity (no concentration beside the values) | actives 3.1% (n = 360,000) | compound autofluorescence counterscreen, microsphere flow cytometry; active compounds read high;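 active means at least 3 SD above the mean of all compounds, about 16000 in these data; inconclusive means too few beads counted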;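 further: 100 nL of 1 mM stock went into each well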
PrP 5UTR inh: suppresses PrP 5' UTR mRNA reporter expression; cell-based PrP 5' UTR mRNA reporter, plate reader; actives 0.35% (n = 340,000); AID 488862; inhibition, % (no concentration beside the values);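 active means every replicate at 50% or more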;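 further: 0 = median of the neutral control wells; tested in H4 reporter cells; numbers are from one replicate; inactives centre near -14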
BJeLR viability: kills HRASV12-expressing BJeLR cells; inhibition, % (test concentration not listed); AID 1554; actives 0.17% (n = 300,000); BJeLR (HRASV12) viability, CellTiter-Glo ATP luminescence, 48 h; reference of the scale not given here;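 active means replicate mean above 50%; inconclusive means above 50% but judged a plate artefact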;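 further: 50 nL library stock added to about 25 µL; numbers are from one replicate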
Mtb hypoxia rep: reduces hypoxia-regulated biosensor signal in M. tuberculosis. M. tuberculosis hypoxia-regulated fluorescent reporter, fluorescence. fluorescence inhibition, % (concentration not given with the values). actives 0.1% (n = 300,000);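 active means 35 to 45% if threefold the growth effect, above 45% if 1.5-fold the growth effect; inactive means the rest, general growth blockers included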;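 further: wells of about 50 µL received 100 nL stock; 0% = vehicle wells and 100% = reference inhibitor wells; whole bacteria with a GFP reporter of the hypoxia response; strong numbers were not always called active; many hits fall short of the cut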
Mtb hypoxia rep growth: further read-out of Mtb hypoxia rep, marked with its call; growth inhibition, %; measured here: M. tuberculosis growth (absorbance);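 0% = vehicle and 100% = reference antibiotic; read after six days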
An asterisk follows results filed as active; ? = inconclusive; nt = no result given; & = joins results of further samples. Not a hit list (roughly 3.9% active in at least one column).

SMILES	ugtP null kill	RN4220 kill	Bead autofluor	PrP 5UTR inh	BJeLR viability	Mtb hypoxia rep	Mtb hypoxia rep growth
O=[N+]([O-])c1ccc(NCc2ccccc2)nc1	-1	3.3	2201	-13	7	7	7
CC(=O)C(Sc1nnnn1-c1ccccc1)C(C)=O	8	2.4	3682	-21	-10	13	-7
Cn1c(=O)c2c(ncn2CC(=O)N2CCN(c3ccc([N+](=O)[O-])cc3)CC2)n(C)c1=O	5	2.4	4742	-8	9	14	7
COc1ccc(/C=N/NC(=O)CN2CCS(=O)(=O)CC2)cc1	nt	nt	4634	-17	4	nt	nt
Cc1ccsc1/C=N/NC(=O)c1ccc2nc[nH]c2c1	nt	nt	2437	2	-1	nt	nt
N/C(=N\OC(=O)C1CCCCC1)c1ccccn1	-2	0.7	10778	-51	-2	9	5
O=C(O)CCCCCN1C(=O)/C(=C\c2cn(-c3ccccc3)nc2-c2cccs2)SC1=S	42	54	4293	-29	1	4	-1
CCn1c(C(=O)N2CCC(C(=O)NCc3ccc4c(c3)OCO4)CC2)cc2sccc21	1	-1.8	5437	-14	nt	-2	-2
O=C(C=Cc1ccccc1O)c1ccccc1O	-8	33	4157	-58	nt	20	16
COc1cc(/C=N/n2cnnc2)ccc1OS(=O)(=O)c1ccccc1[N+](=O)[O-]	nt	nt	2036	4	-2	nt	nt

The closing six compounds of the section before are carried over, then new ones follow.
SMILES	ugtP null kill	RN4220 kill	Bead autofluor	PrP 5UTR inh	BJeLR viability	Mtb hypoxia rep	Mtb hypoxia rep growth
Cc1ccsc1/C=N/NC(=O)c1ccc2nc[nH]c2c1	nt	nt	2437	2	-1	nt	nt
N/C(=N\OC(=O)C1CCCCC1)c1ccccn1	-2	0.7	10778	-51	-2	9	5
O=C(O)CCCCCN1C(=O)/C(=C\c2cn(-c3ccccc3)nc2-c2cccs2)SC1=S	42	54	4293	-29	1	4	-1
CCn1c(C(=O)N2CCC(C(=O)NCc3ccc4c(c3)OCO4)CC2)cc2sccc21	1	-1.8	5437	-14	nt	-2	-2
O=C(C=Cc1ccccc1O)c1ccccc1O	-8	33	4157	-58	nt	20	16
COc1cc(/C=N/n2cnnc2)ccc1OS(=O)(=O)c1ccccc1[N+](=O)[O-]	nt	nt	2036	4	-2	nt	nt
CC(C)CN(CCNC(=O)CN1C(=O)CSc2ccc(S(=O)(=O)N3CCOCC3)cc21)CC(C)C	3	-1.8	3841	-22	6	10	2
Cc1ccc(S(=O)(=O)c2nc(-c3ccccc3)oc2N2CCC(C(N)=O)CC2)cc1	3	1.5	5400	-13	-4	5	1
COc1ccc(C(=O)C2CCCN(C(=O)c3ccc(CSC)o3)C2)cc1F (centres undefined)	3	0.5	5874	-26	1	-1	-2
COc1cccc(-c2nc(CS(=O)(=O)CC(=O)NCCCc3ccccc3)c(C)o2)c1	-4	-4.6	6143	-9	6	-5	3
O=C(COc1ncnc2sccc12)N1CCN(S(=O)(=O)c2ccc(Cl)cc2)CC1	-4	-6.2	3912	-6	2	-6	0
O=C(N/N=C/c1cnc2ccccc2n1)c1cccc(F)c1	nt	nt	7841	-52	2	nt	nt
O=C(Nc1cccc2ccccc12)c1ccc([N+](=O)[O-])s1	0	7.3	2010	-23	-9	4	11
CC(=O)Nc1sc(C)c(C)c1C(=O)OC1CCOC1=O (centres undefined)	10	-1.2	3699	-22	3	nt	nt
COc1ccc(N2CCN(C(=O)CCc3ccc(S(=O)(=O)NC(C)(C)C)cc3)CC2)cc1	10	1.5	5058	-21	-8	4	-6
CCC(=O)N(Cc1cc2cc(OC)ccc2[nH]c1=O)c1ccc(C)cc1	10	0.7	nt	-31	1	4	-4
COC(=O)c1c(C)[nH]c(C(=O)NCCc2ccc(S(N)(=O)=O)cc2)c1C	13	4.3	3794	-35	-7	-9	1
COCCN1C=C(C(=O)OC)C(c2ccc3c(c2)OCO3)C(C(=O)OC)=C1	2	5.8	11223	-22	-3	1	15
CS(=O)(=O)c1ccc(Sc2nc3ccccc3[nH]2)c([N+](=O)[O-])c1	15	7.9	4240	-6	-6	-8	-1
COc1ccc(C(=O)c2c3ccccc3[n+]([O-])n2Cc2ccc(C(N)=O)cc2)cc1	7	6.9	2843	-19	nt	18	7
Cc1ccccc1OCCC(=O)Nc1ccc(S(=O)(=O)N(C)C2CCN(C)CC2)cc1	8	4.5	6303	-14	-5	12	4
O=C(NCCS(=O)(=O)N1CCN(c2ccccc2F)CC1)c1ccc(F)c(F)c1	2	1.1	5770	-18	-1	6	4
CC(CCc1ccc2c(c1)OCO2)=N/N=C1/NC(=O)CC(C(=O)Nc2ccc(Cl)cc2)S1 (centres undefined)	-14	-0.3	nt	nt	nt	-6	-2
COCC(=O)NC1CCN(CC(=O)Nc2ccccc2[N+](=O)[O-])CC1	14	5.0	2604	-11	-2	-5	1
Cc1ccc(NS(=O)(=O)c2cccc3nsnc23)cc1[N+](=O)[O-]	5	9.7	2940	-1	-8	-3	-4
C/C(=N\NC(=O)c1ccc(OC2OCCOC2Oc2ccc(C(=O)N/N=C(\C)c3ccncc3)cc2)cc1)c1ccncc1 (centres undefined)	nt	nt	4834	2	3	nt	nt

Retrieved by structure from the list above:
SMILES	ugtP null kill	RN4220 kill	Bead autofluor	PrP 5UTR inh	BJeLR viability	Mtb hypoxia rep	Mtb hypoxia rep growth
COc1ccc(C(=O)c2c3ccccc3[n+]([O-])n2Cc2ccc(C(N)=O)cc2)cc1	7	6.9	2843	-19	nt	18	7
CS(=O)(=O)c1ccc(Sc2nc3ccccc3[nH]2)c([N+](=O)[O-])c1	15	7.9	4240	-6	-6	-8	-1
Cc1ccccc1OCCC(=O)Nc1ccc(S(=O)(=O)N(C)C2CCN(C)CC2)cc1	8	4.5	6303	-14	-5	12	4
Cc1ccc(NS(=O)(=O)c2cccc3nsnc23)cc1[N+](=O)[O-]	5	9.7	2940	-1	-8	-3	-4

(more compounds)
SMILES	ugtP null kill	RN4220 kill	Bead autofluor	PrP 5UTR inh	BJeLR viability	Mtb hypoxia rep	Mtb hypoxia rep growth
Cc1nnsc1Sc1ccccc1C(=O)O	8	7.6	3346	-24	-7	-6	2
COCCN(C(=O)Cc1cccs1)C(C(=O)NCc1ccc(OC)cc1)c1ccc(C)cc1 (centres undefined)	3	3.8	10516	-28	-5	19	9
CC(C)(C)c1ccc(OCCC(=O)Nc2cccc(S(=O)(=O)N3CCOCC3)c2)cc1	-5	-3.5	5678	-30	-1	0	-2
CCOC(=O)CC(C)=NNC(=O)COc1ccccc1C	0	-2.4	nt	nt	nt	-2	9
CCCCn1c(-c2ccc(OC(F)F)cc2)nc2c1c(=O)[nH]c(=O)n2CC(C)C	-2	0.1	3767	-6	7	0	7
COc1cc(S(=O)(=O)Nc2ccccc2C(=O)N2CCCC2)ccc1NC(C)=O	8	4.0	?	-15	nt	-8	-4
Cc1ccn2c(C(=O)N/N=C\c3ccc4c(c3)OCO4)c(C)nc2c1	nt	nt	1941	-2	-11	nt	nt
COC(=O)c1ccc(OC(=O)c2ccccn2)cc1	6	1.3	3034	-35	-7	10	-1
O=C(C1=C(O)C(=O)N(CCN2CCOCC2)C1c1ccncc1)c1ccco1 (centres undefined)	-6	7.6	9147	-29	0	16	4
CC(=O)Oc1cccc(N2C(=O)c3cccc4c([N+](=O)[O-])ccc(c34)C2=O)c1	7	6.9	3757	-10	-4	-4	11
COCc1ccc2oc(C(=O)O)cc2c1	0	0.8	4821	-3	-2	nt	nt
CC1=C(C(=O)NCc2ccccc2)C(c2cc(Br)cc(Br)c2OC(C)C)NC(=O)N1 (centres undefined)	-9	5.8	15810	-7	0	-4	11
Cc1cc(C)cc(NC(=O)CSCc2cnn(-c3ccccc3)c2-n2cccc2)c1	22	-5.9	3720	3	-18	13	10
COc1ccc(C2=NN(C(=O)C(O)c3ccccc3)C(O)(C(F)(F)F)C2)cc1 (centres undefined)	-3	5.2	3573	9	-1	10	1
COc1ccc(-c2cc3ccc(OC)cc3cn2)cc1	6	8.5	4095	42	nt	20	15
CC(=O)N1CCc2cc(S(=O)(=O)C(C)CC(=O)Nc3ccc(OC(F)(F)F)cc3)ccc21 (centres undefined)	8	1.0	5206	-45	6	11	2
CCN1CCN(c2nc(-c3ccc(F)cc3)cc(=O)[nH]2)CC1	6	2.5	3142	-21	-9	-1	-3
Cc1cccc(N2CCN(C(=O)C3CCC(=O)N(Cc4ccccc4F)C3)CC2)c1C (centres undefined)	6	2.6	5410	-19	10	-8	5
CCCc1nc(SCC(=O)Nc2nccs2)c2ccccc2n1	-3	7.5	3620	-5	-7	12	-5
CC(C)(C)C(O)C(Oc1ccc(Cl)cc1)n1cncn1 (centres undefined)	-7	5.0	4344	-10	4	13	6

3 entries already listed, sorted by molar mass, ascending.
SMILES	ugtP null kill	RN4220 kill	Bead autofluor	PrP 5UTR inh	BJeLR viability	Mtb hypoxia rep	Mtb hypoxia rep growth
CC(C)(C)C(O)C(Oc1ccc(Cl)cc1)n1cncn1 (centres undefined)	-7	5.0	4344	-10	4	13	6
CCN1CCN(c2nc(-c3ccc(F)cc3)cc(=O)[nH]2)CC1	6	2.5	3142	-21	-9	-1	-3
CC(=O)N1CCc2cc(S(=O)(=O)C(C)CC(=O)Nc3ccc(OC(F)(F)F)cc3)ccc21 (centres undefined)	8	1.0	5206	-45	6	11	2

Following part
SMILES	ugtP null kill	RN4220 kill	Bead autofluor	PrP 5UTR inh	BJeLR viability	Mtb hypoxia rep	Mtb hypoxia rep growth
COc1ccc(C(CNC(=O)CN(C)S(=O)(=O)c2ccc(C)cc2)N2CCCC2)cc1 (centres undefined)	6	3.2	4112	-26	nt	1	6
CC(C)(C)c1cc(CCC(=O)NNC(=O)c2ccncc2)cc(C(C)(C)C)c1O	7	5.6	2989	-4	nt	0	-3
CCOc1ncccc1C(=O)NCCN1C(=O)S/C(=C/c2cccs2)C1=O	7	0.3	2112	-3	1	1	11
O=C(NCc1ccccc1Cl)c1cc2ccccc2oc1=O	4	2.6	4053	-70	1	17	1
O=C1CN(S(=O)(=O)c2ccc(F)cc2)CCN1	7	2.9	3304	-20	nt	15	5
COCCN(C(=O)COC(=O)C1CC1C)c1c(N)n(Cc2ccccc2)c(=O)[nH]c1=O (centres undefined)	8	1.0	5586	-25	14	0	-6
NC(=O)c1ccsc1NC(=O)COC(=O)c1ccc(Cl)c(N)c1	-12	4.2	4349	-1	-7	-15	-6
CC(Cn1cnc([N+](=O)[O-])n1)=NNC(=O)c1ccc(O)cc1O	3	-1.4	nt	nt	nt	-9	7
O=C(Cc1cc(=O)[nH][nH]1)N/N=C/C(Cl)=C/c1ccccc1	nt	nt	10671&3239	9	15&-2	nt	nt
O=C(Cc1ccccc1)N/N=C/c1ccc([N+](=O)[O-])s1	nt	nt	3140	-27	21	nt	nt
NC(=O)CC1NC(=O)C(CCC(=O)O)NC(=O)c2cc([N+](=O)[O-])cc(I)c2NCCCC(C(N)=O)NC1=O (centres undefined)	5	7.6	nt	nt	nt	21	13
C/C(=N\NC(=O)COc1ccccc1-c1ccccc1)c1cccnc1	nt	nt	4040	-18	3	nt	nt
O=[N+]([O-])c1ccc(-c2csc(N3CCc4ccccc4C3)n2)cc1	14	4.4	9195	3	10	9	0
Cc1coc2c(C)c3oc(=O)c4c(c3cc12)CCCC4	-2	11	10154	-27	1	0	3
O=c1c2ccccc2nnn1CSc1nnc(-c2ccco2)o1	15	9.9	2432	-17	1	nt	nt
O=C(Nc1cnc2ccccn2c1=O)c1ccc(Cl)cc1	5	2.5	10517	nt	-10	-9	0
